Source: PubChem BioAssay (several laboratories)
B2AR ag – agonists of human beta-2 adrenergic receptor inducing internalization; P07550; response, % (test concentration not listed); Am2.2-beta2AR cells, FAP receptor internalization, flow cytometry; reference of the scale not given here; actives 0.43% (n = 340,000);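 active means response above a set limit, near 3 SD of response in nonfluorescent compounds, cut at about 42% in these data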;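 further: stock transfer was 100 nL into about 11 µL; a reference agonist was the positive control; negative values mostly stem from fluorescent compounds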
Vif A3G – HIV-1 Vif–A3G interaction blockers – biochemical, TR-FRET, GST-Vif 1-94, biotin-A3G peptide, dose response retest, primary screen (AID 1117319); TR-FRET GST-Vif / biotin-A3G peptide binding; higher % means a stronger effect; test concentration not given here; strong numbers were not always called active; inhibition, %, or IC50 in µM where a hit was titrated; actives 0.57% (n = 260,000);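 active means above the screen mean plus three standard deviations and confirmed in dose response; inconclusive means results disagree or hit not tested in dose response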;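 further: Vif residues 1-94 fused to GST binding biotinylated APOBEC3G peptide 110-148; 0% = full assay without inhibitor and 100% = GST in place of GST-Vif; retest series ran down from 100 µM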
Calb FLC – C. albicans growth modulation with fluconazole | AID 1979 | C. albicans CaCi-2 (fluconazole-resistant clinical isolate) + fluconazole, Alamar Blue growth, 48 h | actives 0.57% (n = 300,000) | growth inhibition, % (test concentration not listed);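 active means most replicates above 75%; inconclusive means exactly half above 75%; inactive means most below 75%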;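 further: all wells also contain fluconazole at 8 µg/ml as a sub-toxic cotreatment; 0% = median of DMSO wells and 100% = median of geldanamycin control wells; wells of about 8 µL received 7.5 nL stock; the first replicate is given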
HNF4A DNA FP – change in binding of human HNF4 alpha to DNA; P41235; HNF4a-FITC DNA binding, fluorescence polarization, 1 h; activity change, % at 10 µM; actives 0.3% (n = 360,000); in the data active means activity change above about 30%, passing the limit was not always enough;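 further: controls were the assay level and a saturating level of protein; the project sought stronger binding though the title names inhibitors; some compounds called inactive have numbers as strong as hits; positive values seem to mean higher polarization but the record does not say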
Target sequence (P41235 whole entry, looked up): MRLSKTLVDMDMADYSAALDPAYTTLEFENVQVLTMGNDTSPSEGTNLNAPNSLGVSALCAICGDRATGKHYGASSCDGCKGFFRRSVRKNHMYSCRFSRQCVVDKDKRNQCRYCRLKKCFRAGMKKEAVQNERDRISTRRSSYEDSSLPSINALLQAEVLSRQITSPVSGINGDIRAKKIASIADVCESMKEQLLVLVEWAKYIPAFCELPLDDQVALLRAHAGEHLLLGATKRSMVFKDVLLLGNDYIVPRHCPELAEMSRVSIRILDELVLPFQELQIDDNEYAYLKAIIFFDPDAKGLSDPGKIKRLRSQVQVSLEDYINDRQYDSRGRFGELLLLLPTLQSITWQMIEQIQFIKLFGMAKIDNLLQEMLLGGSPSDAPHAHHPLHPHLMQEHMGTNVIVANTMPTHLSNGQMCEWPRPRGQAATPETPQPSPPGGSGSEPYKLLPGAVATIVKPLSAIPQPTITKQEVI
RanGTP-Imp inh – inhibitors of RanGTP-importin-beta interaction, primary screen, biochemical, FRET, CFP-Ran, YFP-importin-beta, homogeneous; cell-free CFP-Ran/YFP-importin-beta FRET ratio; inhibition, % (concentration not given with the values); actives 1.1% (n = 300,000); AID 2216;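 active means most replicates above 15%; inconclusive means exactly half above 15%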;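 further: 0% = DMSO wells and 100% = Ran loaded with GDP instead of GTP; wells of about 40 µL received 100 nL stock; the first replicate is given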
LANA-H2A inh – blocks KSHV LANA binding to histone H2A/H2B; Q9QR71; cell-free LANA-H2A/H2B peptide, fluorescence polarization; inhibition, % (concentration not given with the values); actives 0.6% (n = 320,000); in the data active means inhibition mostly above about 10%, no sharp cut-off; inactive means mostly below about 6.7%;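 further: stock transfer was 7.5 nL into about 10 µL; 0% = median of vehicle wells and 100% = median of positive control wells; one replicate is shown; the record names a cut of 25% in any replicate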
ALR inh – human ALR oxidase inhibition via reduced H2O2 | purified ALR, DTT oxidation, H2O2 HRP-luminol luminescence | inhibition, % (no concentration beside the values) | P55789 | actives 3.8% (n = 290,000);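 active means mean and each replicate at 75% or more; inconclusive means only one of the two met; inactive means neither met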;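 further: stock transfer was 7.5 nL into about 7.5 µL; 0% = neutral wells and 100% = wells with inactivated enzyme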
Target sequence (P55789 whole entry, looked up): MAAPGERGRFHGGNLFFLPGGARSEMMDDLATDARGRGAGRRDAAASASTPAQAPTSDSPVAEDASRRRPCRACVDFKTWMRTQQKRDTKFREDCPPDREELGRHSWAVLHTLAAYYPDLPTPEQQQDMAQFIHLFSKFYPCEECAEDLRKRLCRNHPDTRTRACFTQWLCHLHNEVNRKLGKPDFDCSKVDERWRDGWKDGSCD
Numbers without * were called inactive; u = inconclusive; x = no result given. Rows were taken by chance. Share with any hit: about 6.3%.

SMILES	B2AR ag	Vif A3G	Calb FLC	HNF4A DNA FP	RanGTP-Imp inh	LANA-H2A inh	ALR inh
CCOC(=O)c1c(-c2ccc(F)cc2)csc1NC(=O)CCN1CCOCC1	0.3	17.1%	3.7	-1.5	3.0	0.4	11.5
CCCCn1cnc2c([nH]c3cc(OC)ccc32)c1=O	11.2	-5.5%	2.9	2.4	3.5	1.7	-5.7
c1cncc(CSc2ccc(-c3ccc4c(c3)OCO4)nn2)c1	-2.4	-8.0%	1.6	-6.7	0.8	5.8	-0.1
COc1ccc2c(c1)O[C@@]1(CCCC[C@@H]1C)CC2=O	-4.7	x	-0.1	-2.5	9.0	4.2	3.6
O=C(CN1C(=O)NC(c2ccccc2)(c2ccccc2)C1=O)NCC(=O)Nc1ccc(F)cc1	-5.9	-3.1%	x	-10.8	x	1.2	-2.4
COC(=O)c1ccc(OCC(O)CN2CCN(C(=O)c3ccco3)CC2)c(OC)c1 (centres undefined)	-3.6	x	1.5	-2.4	4.6	-1.0	-2.4
COc1ccc(OCC(O)Cn2cnc(-c3ccc(Br)cc3)c2)cc1 (centres undefined)	-5.6	-25.4%	3.0	-1.7	-0.7	1.9	-5.8
CCOC(=O)c1oc2ccccc2c1CSc1nnnn1-c1ccc(C)cc1	4.7	u	4.6	3.8	u	0.2	-6.4
CCCn1c(SCc2ccccn2)nc2c1c(=O)n(C)c(=O)n2C	-13.9	8.3%	9.0	0.6	6.7	-3.1	3.3
O=C(Nc1ccc(Oc2ncccn2)cc1)c1ccco1	-3.4	-1.8%	-0.9	1.4	-0.5	-3.3	-3.6
O=C(N/N=C/c1ccc2c(c1)OCO2)c1cc(-c2ccccc2Cl)nc2ccccc12	-1.0	x	49.1	-0.3	0.9	-2.3	-0.8
COc1ccc(NC(=O)CCl)cn1	x	32.1%	8.7	x	0.5	-0.2	x
COC(=O)C(Cc1c[nH]c2ccccc12)N1CCS(=O)(=O)CC1 (centres undefined)	22.1	-1.9%	-4.3	-1.6	-0.2	-3.8	33.3
COc1ccc(C(C(=O)NC2CCCC2)N(Cc2ccc(C)cc2)C(=O)c2ccn[nH]2)cc1OC (centres undefined)	3.1	u	1.0	0.5	1.2	4.1	-7.8
COCCNC(=O)C1CCC(CNS(=O)(=O)c2ccc(F)cc2)CC1 (centres undefined)	-2.2	2.1%	-2.6	6.8	0.9	-4.2	2.1
C/C(=N\NC(=O)C1COc2ccccc2O1)c1cc2ccccc2o1 (centres undefined)	-1.1	3.4%	-9.2	1.0	-1.4	1.8	-1.4
Cc1ccc(S(=O)(=O)NC(=O)c2cccc(N(C)C)c2)cc1	2.8	x	x	-0.6	x	4.5	15.8
CCCN(CC(=O)Nc1ccccc1C)C(=O)c1ccc(NC2CC2)c([N+](=O)[O-])c1	-7.6	-7.5%	6.2	-1.9	-6.8	3.0	x
CC(=O)c1cccc(N(C(=O)CNC(=O)c2ccco2)C(C(=O)NCc2ccco2)c2ccccc2)c1 (centres undefined)	-1.0	4.8%	15.2	-0.8	-2.3	-4.0	-11.7
C=CCN1C(=O)/C(=C/c2ccc(O)cc2)S/C1=N/c1nccs1	-3.2	1.0%	-10.4	44.6*	-9.7	1.7	-10.1
COc1ccc(OC)c(C(C(=O)NC2CCCCC2)N(C(=O)c2ccccn2)c2cccnc2)c1 (centres undefined)	0.4	-4.5%	4.3	-0.8	-0.8	-7.2	x
CCN1CCCC1CN(Cc1cc2ccc(C)cc2[nH]c1=O)C(=S)Nc1cccc(OC)c1 (centres undefined)	1.1	0.2%	1.4	0.5	1.7	-4.9	-17.4
COc1ccc(NC(=O)c2cc(-c3ccc(OC)c(OC)c3)on2)cc1OC	9.7	-1.3%	-6.0	-1.4	-1.7	2.5	-18.1
COc1ccc(Nc2nc3cc(C)ccc3cc2C#N)cc1	-99.8	-9.2%	2.7	-0.9	-2.7	2.1	x
O=S(=O)(Cc1ccccc1)N1CCN(Cc2ccc(Br)cc2)CC1	-7.4	-7.5%	5.2	-3.5	-1.7	4.1	-0.6
O=C(COC(=O)c1ccccc1Nc1ccccc1)NCc1ccco1	10.6	-4.3%	2.1	-1.9	-2.7	2.3	3.4
Cc1cc(C(F)(F)F)nc(SCC(=O)NC2CCCCC2)n1	0.8	x	-9.0	-0.5	-1.9	-1.5	-13.8
COc1ccccc1-c1nc2c3ccccc3nc(=S)n2[nH]1	7.7	0.2%	-2.0	1.5	0.2	0.8	0.5
Cc1ccc(C)c(OCC(=O)NCC2COc3ccccc3O2)c1 (centres undefined)	-5.1	-13.1%	x	1.4	x	2.2	1.2
COc1ccc2cc(S(=O)(=O)c3ccccc3)c(=O)oc2c1	-3.5	14.7%	-4.3	-1.1	0.9	-3.2	-3.9
CN(CC(=O)Nc1ccc(N2CCOCC2)cc1)C(=O)CSc1ccc(F)cc1	-4.8	0.6%	5.9	-1.0	1.4	1.6	39.9
Cc1cccc(CN2CCC(CNC(=O)Nc3ccc(F)c(Cl)c3)CC2)c1	20.3	-3.1%	-17.7	-0.4	u	-4.6	-0.9
O=C(Cc1ccc(F)cc1)NC1CCSC1=O (centres undefined)	-1.7	5.9%	-6.2	3.4	0.8	2.5	-2.6
CSc1ccc(NC(=O)Nc2ccccc2C(N)=O)cc1	0.1	-1.6%	5.0	0.6	u	-2.6	1.3
CCC(=O)Nc1ccc(C(=O)Nc2ccc(OC)cc2[N+](=O)[O-])cc1	-3.4	-0.1%	0.6	0.4	-1.2	-2.1	-14.6
CC(=O)/C(=N\Nc1ccccc1)Oc1ccc(Br)cc1	-4.2	x	20.0	-8.0	u	-4.1	-7.8
CCN(CC)C(=O)C(=O)N/N=C/c1ccc(F)cc1	7.0	x	-5.4	1.4	0.8	-5.7	-5.6
CC1(C)Cc2nc3n[nH]c(N)c3cc2CO1	0.4	1.5%	-10.0	0.2	-0.6	1.9	87.0*
CCOC(=O)c1cc(-c2ccc(N)cc2)sc1N	0.5	3.7%	-16.5	1.8	6.4	-5.7	69.4
Cc1ccc(C)c(NC(=O)CN(C)C(=O)c2ccc(-c3cccc(C(F)(F)F)c3)o2)c1	-11.9	x	-4.6	-2.4	0.3	-4.6	1.0
CC1CCCCN1Cc1nc2c(c(=O)n(C)c(=O)n2C)n1CCCc1ccccc1 (centres undefined)	-15.3	x	-3.6	-7.6	1.8	-4.8	2.8
Cc1ccc(S(=O)(=O)N(C)C)cc1NC(=O)Nc1ccccc1F	24.3	9.1%	4.4	0.4	-0.4	-4.5	-3.4
Clc1ccccc1-c1nnc(-c2cccnc2)o1	-6.4	1.4%	14.2	-2.0	-4.4	3.5	-0.8
Nc1nc(N)c(N=Nc2ccc(SCC(=O)O)cc2)c(=O)[nH]1	3.4	u	-3.9	1.8	44.0*	6.6	x
CCCOc1ccc(-c2nc(C#N)c(N3CCN(CC)CC3)o2)cc1	-9.7	-1.6%	1.8	-1.0	0.8	-1.8	-32.4
CC(C)CN1C(=O)NC(NS(=O)(=O)c2ccc(N)cc2)(C(F)(F)F)C1=O (centres undefined)	-1.5	x	1.8	-0.4	1.7	4.7	98.6*
O=C(CN1C(=O)NC2(CCCCC2)C1=O)NC1CCCc2ccccc21 (centres undefined)	2.3	x	-12.5	0.7	-1.5	x	x
COCCNC(=O)c1ccc(CN2CCOCC2)cc1	1.8	x	4.7	-1.8	0.6	-3.8	-0.8
CCCc1c(C(=O)N/N=C(\C)CCc2ccccc2)nnn1-c1nonc1N	-20.5	x	-5.9	1.3	4.5	2.5	-6.3
COc1ccccc1C(=O)Cc1ccccc1	-0.6	-9.3%	x	-2.5	x	x	x
COC(=O)c1ccc(C(=O)OC)c(NC(=S)N2CCN(C)CC2)c1	-4.4	2.0%	14.7	3.6	31.7*	-3.2	x
COc1cccc(-c2cc(C(=O)Nc3ccc4c(c3)OCO4)no2)c1	6.1	x	-8.2	-5.2	4.1	-0.4	-5.3
NC(N)=NS(=O)(=O)c1ccc(NC(=S)Nc2ccc(F)cc2)cc1	2.0	-1.8%	-8.8	0.2	2.0	-2.6	18.3
COc1ccc(CCNC(=O)CN2C(=O)COc3ccc(S(=O)(=O)N4CCCC4)cc32)c(OC)c1	0.6	x	-2.0	0.8	5.2	-1.9	-2.5
Cc1ccc(C)c(NC(=O)CN(C)C(=O)c2ccccc2OCc2ccc(Cl)cc2)c1	5.9	-12.4%	12.1	-1.1	-0.1	1.6	-13.5
Cc1cc(C)n(C(=O)CCN2C(=O)c3ccccc3C2=O)n1	-1.2	2.6%	-4.7	1.4	-2.3	1.6	2.9
COc1ccc(NS(=O)(=O)c2cc(NC(=O)[C@H](C)NC(N)=O)ccc2N2CCCC2)cc1	-2.8	x	x	-2.9	x	2.3	28.5
CC(Cc1ccccc1)NC(=O)c1cc2ccccc2o1 (centres undefined)	-3.4	x	0.8	-1.6	u	-0.8	-4.5
O=C(O)c1ccc(CNCc2ccc(Cl)cc2Cl)cc1	-5.6	3.4%	-7.8	0.3	-1.0	0.9	-8.5
COc1cccc(NC(=O)NCc2c(-c3ccccc3)noc2C)c1	-3.2	-3.7%	-1.8	-3.5	1.1	-0.3	-2.5
The list continues.
SMILES	B2AR ag	Vif A3G	Calb FLC	HNF4A DNA FP	RanGTP-Imp inh	LANA-H2A inh	ALR inh
O=C(Cc1ccccn1)c1ccncc1	7.8	70.8%	x	-2.2	x	x	x
Cc1csc(SCC(=O)NCc2ccc3c(c2)OCO3)n1	-1.9	4.8%	-2.5	3.8	-2.2	-2.3	-2.4
O=C(Cc1c(C(=O)O)[nH]c2ccccc12)NC1CCCC1	-11.2	4.6%	-2.6	-2.3	0.8	0.8	-3.1
O=C(Nc1sc2c(c1C(=O)O)CCC2)c1ccccc1F	16.4	-7.0%	22.3	3.1	-1.4	3.1	98.3*
Cc1ccccc1Nc1c(C)c(C)nc2ncnn12	1.8	x	6.4	6.2	u	2.7	x
CCn1cc(S(=O)(=O)NC2CCCCC2)cn1	3.3	x	2.3	2.0	3.2	2.8	-2.6
O=C(NNC(=O)c1ccccc1-n1cccc1)c1ccc(Cl)nc1	-1.5	x	x	-3.0	x	2.6	-27.5
N#C/C(=C/c1ccc(-c2ccccc2[N+](=O)[O-])o1)C(N)=O	-8.3	-6.9%	9.4	2.7	-7.5	-7.7	-56.0
CC(C)C[C@H](NC(=O)c1nc[nH]c1C(=O)N[C@@H](CC(C)C)C(=O)OCc1ccccc1)C(=O)OCc1ccccc1	8.2	x	-4.3	1.6	-2.7	-2.1	-5.1
Cc1ccc(-c2cnc(C3CC3)o2)cc1S(=O)(=O)Nc1ccccc1	22.4	x	-10.1	7.6	0.4	x	-13.0
Cc1cc(CNC[C@H]2O[C@@H](n3cnc(C(N)=O)n3)[C@H](O)[C@@H]2O)c(C)n1-c1cccnc1	-0.5	6.2%	x	-2.2	x	x	x
CC1(C)NC(=O)N(CCOc2cccc(Cl)c2Cl)C1=O	0.7	-3.9%	34.7	-3.0	0.1	-4.4	-0.9
CCN1C(=O)[C@H]2[C@@H](c3ccc(-c4cccc(Cl)c4)c(OC)c3)N3CCC[C@@]3(C(=O)OC)[C@H]2C1=O	5.7	x	x	6.6	x	0.8	-20.6
CCOc1cccc(OCCn2cnc3ccccc3c2=O)c1	-9.6	-1.9%	-1.1	-0.2	1.5	6.4	3.4
CC1CCC(NC(=O)CC(NC(N)=O)c2ccccc2Cl)CC1 (centres undefined)	3.4	-16.5%	1.8	0.5	7.0	-3.9	3.4
O=S(=O)(Cc1ccccc1)N1CCN(C/C=C/c2ccccc2)CC1	1.6	4.8%	-1.2	-0.6	-0.8	-2.2	-2.3
